# Assay outcomes: PubChem, several laboratories
# T cruzi inh – blocks replication of Trypanosoma cruzi; hit rate 1.4% among 300,000; inhibition, % (concentration not given with the values); T. cruzi beta-gal in NIH3T3, luminescence, 90 h;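 active = mean inhibition across valid replicates above about 55%, limit read from the data; inconclusive = mean below that limit but half or more replicates reach it; inactive = mean below it, under half of replicates reach it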;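 note: signal also drops with host cell toxicity which is not excluded here; 0% = plate median of DMSO wells and 100% = zero luminescence signal; higher percent means less beta-gal luminescence so fewer parasites; stock transfer was 50 nL into about 50 µL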
# Beta2AR agonist – activates human beta-2 adrenergic receptor causing internalization; hit rate 0.43% among 340,000; Am2.2-beta2AR cells, FAP receptor internalization, flow cytometry; reference of the scale not given here; P07550; response, % (no concentration beside the values); AID 504454;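 active = response above a set limit, near 3 SD of response in nonfluorescent compounds, cut at about 42% in these data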;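 note: stock transfer was 100 nL into about 11 µL; a reference agonist was the positive control; negative values mostly stem from fluorescent compounds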
# Calb FLC – affects C. albicans growth with fluconazole; C. albicans CaCi-2 (fluconazole-resistant clinical isolate) + fluconazole, Alamar Blue growth, 48 h; growth inhibition, % (test concentration not listed); hit rate 0.57% among 300,000; AID 1979;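 active = most replicates above 75%; inconclusive = exactly half above 75%; inactive = most below 75%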;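 note: all wells also contain fluconazole at 8 µg/ml as a sub-toxic cotreatment; 0% = median of DMSO wells and 100% = median of geldanamycin control wells; wells of about 8 µL received 7.5 nL stock; the first replicate is given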
# rRNA inh HTS – inhibits bacterial ribosomal RNA function over humanized ribosomes | hit rate 1.6% among 350,000 | GFP signal change (wild-type ribosome), % (concentration not given with the values) | E. coli WT GFP vs humanized-ribosome RFP mutants, fluorescence, 24 h; stronger effect = lower value; DMSO median 0, no signal -100 | AID 720706;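 active = significant combined selectivity score with lowered wild-type GFP, culture density cut under 30%, mutant RFP and density less affected; inactive = any of these conditions unmet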; note: one replicate is shown; some compounds called inactive have numbers as strong as hits
# ALR inh – human ALR oxidase inhibition via reduced H2O2; P55789; purified ALR, DTT oxidation, H2O2 HRP-luminol luminescence; hit rate 3.8% among 290,000; inhibition, % (concentration not given with the values); AID 485317;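 active = mean and each replicate at 75% or more; inconclusive = only one of the two met; inactive = neither met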;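 note: stock transfer was 7.5 nL into about 7.5 µL; 0% = neutral wells and 100% = wells with inactivated enzyme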
# Beta apoptosis – beta cell apoptosis inhibition; hit rate 0.8% among 300,000; AID 435005; INS-1E cytokine-induced death, ATP luminescence, 48 h; percent of positive-control rescue, neutral wells zero; protection from apoptosis, % (no concentration beside the values);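 active = all replicates at 75% or more, or half of them and the mean; inconclusive = half reach 75% but not the mean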;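 note: 0% = cytokine-treated negative control wells and 100% = positive control rescue; higher means more ATP so stronger rescue from cytokine killing; wells of about 40 µL received 100 nL stock; the first replicate is given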
# A1 inh – inhibitors of the anti-apoptotic protein A1, read as caspase activation | MEF A1-2A-BIM cells, Caspase-Glo 3/7 luminescence, 3 h; percent of clofoctol response, vehicle zero | hit rate 0.066% among 330,000 | caspase activation, % (concentration not given with the values) | AID 2462;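 active = over half of replicate activation scores above 10%, or exactly half above 10 with the replicate mean above 10; inconclusive = replicate mean below 10 yet half the replicates above 10; inactive = over half of replicates below 10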;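 note: wells of about 30 µL received 50 nL stock; many hits fall short of the cut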
# LANA-H2B inh – blocks KSHV LANA binding to histone H2A/H2B; inhibition, % (test concentration not listed); cell-free LANA-H2A/H2B peptide, fluorescence polarization; hit rate 0.6% among 320,000; in the data active = inhibition mostly above about 10%, no sharp cut-off; inactive = mostly below about 6.7%;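 note: stock transfer was 7.5 nL into about 10 µL; 0% = median of vehicle wells and 100% = median of positive control wells; one replicate is shown; the record names a cut of 25% in any replicate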
# Target sequence (Q9QR71 whole entry, looked up): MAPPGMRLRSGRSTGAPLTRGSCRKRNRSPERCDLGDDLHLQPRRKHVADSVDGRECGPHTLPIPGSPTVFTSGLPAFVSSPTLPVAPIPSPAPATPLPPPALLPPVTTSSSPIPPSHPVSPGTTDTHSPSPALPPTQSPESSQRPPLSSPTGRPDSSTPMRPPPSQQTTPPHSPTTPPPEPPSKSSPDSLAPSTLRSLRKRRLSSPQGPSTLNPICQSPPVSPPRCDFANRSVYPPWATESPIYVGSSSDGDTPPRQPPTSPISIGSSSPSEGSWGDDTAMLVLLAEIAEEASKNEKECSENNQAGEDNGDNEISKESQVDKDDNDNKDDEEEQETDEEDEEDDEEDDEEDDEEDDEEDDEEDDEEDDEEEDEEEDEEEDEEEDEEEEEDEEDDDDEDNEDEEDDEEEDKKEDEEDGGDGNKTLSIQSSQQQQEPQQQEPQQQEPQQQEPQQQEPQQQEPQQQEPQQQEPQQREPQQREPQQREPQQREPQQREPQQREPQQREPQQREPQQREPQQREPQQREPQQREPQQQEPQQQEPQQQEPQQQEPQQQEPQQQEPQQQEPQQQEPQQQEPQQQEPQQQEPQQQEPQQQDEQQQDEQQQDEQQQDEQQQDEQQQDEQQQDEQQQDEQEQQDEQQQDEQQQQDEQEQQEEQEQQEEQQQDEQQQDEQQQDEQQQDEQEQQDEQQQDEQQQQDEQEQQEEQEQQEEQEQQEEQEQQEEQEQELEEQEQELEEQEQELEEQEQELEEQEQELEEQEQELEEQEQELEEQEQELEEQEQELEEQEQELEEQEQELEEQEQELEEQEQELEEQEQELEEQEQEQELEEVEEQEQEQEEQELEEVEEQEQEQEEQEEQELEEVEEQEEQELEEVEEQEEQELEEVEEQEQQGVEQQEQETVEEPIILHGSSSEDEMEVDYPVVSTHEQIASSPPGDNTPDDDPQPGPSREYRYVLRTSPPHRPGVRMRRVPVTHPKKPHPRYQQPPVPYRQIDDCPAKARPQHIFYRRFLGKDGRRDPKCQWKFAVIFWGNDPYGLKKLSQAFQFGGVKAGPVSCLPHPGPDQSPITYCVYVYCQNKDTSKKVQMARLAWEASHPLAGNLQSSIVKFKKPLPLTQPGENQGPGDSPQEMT
# rRNA inh HTS OD600 – also measured in rRNA inh HTS; calls as there; OD600 change, %; measured here: OD600 growth;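 optical density of the mix in the first replicate; 0 = DMSO median and -100 = no signal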
# rRNA inh HTS RFP – also measured in rRNA inh HTS; calls as there; RFP signal change, %; measured here: RFP humanized mutant strains;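 first replicate; 0 = DMSO median and -100 = no signal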
# * hit, by the source's call; u = inconclusive; x = not tested or not shown. Not all compounds are listed, so the mix of outcomes need not match the whole.
SMILES,T cruzi inh,Beta2AR agonist,Calb FLC,rRNA inh HTS,rRNA inh HTS OD600,rRNA inh HTS RFP,ALR inh,Beta apoptosis,A1 inh,LANA-H2B inh
O=C(COc1cc2oc(=O)c3c(c2cc1Cl)CCCC3)N1C[C@H]2C[C@@H](C1)c1cccc(=O)n1C2,3,-19,-1,x,x,x,x,-2,-0.3,1.5
Cc1ccc(C)c2[nH]c(=O)c(CCNC(=O)c3ccco3)cc12,10,-18,3,x,x,x,u,3,0.3,2.5
COc1cc(OC)cc(C(=O)NCCC(=O)NCCc2ccc(OC)c(OC)c2)c1,-18,6,-5,x,x,x,4,2,1.0,1.6
COc1ccccc1CNC(=S)NCc1ccc(F)cc1,-11,-12,-13,5,-6,-1.7,-1,-1,0.4,3.5
COc1cc(C)c(C#N)c(OC)n1,-6,6,-10,x,x,x,-3,-8,0.1,-2.4
C=CCn1c(N)c(C(=O)Nc2cccc(C)c2)c2nc3ccccc3nc21,46,30,14,x,x,x,x,-1,0.2,-2.0
Cc1nn(CC(=O)Nc2ccc(N3CCOCC3)cc2)c(C)c1Br,1,3,4,16,7,2.0,10,-6,-0.1,0.9
Cc1ccc(-n2cc(C(=O)O)c(=O)cc2C)c(C)c1,-1,-2,-5,6,-4,-2.1,-5,-5,1.1,0.5
CC12/C(=N/O)C3C4CC5C3/C(=N/O)C1C5C42 (stereo not drawn),-7,0,18,10,7,4.8,-14,-4,-0.6,1.7
Cc1nnc(NC(=O)C2CCN(S(=O)(=O)c3ccc(F)c(F)c3)CC2)o1,x,-5,x,7,14,-1.4,-7,-3,-0.5,-2.6
COc1ccc(S(N)(=O)=O)cc1C(=O)NNC(=O)C1COc2ccccc2O1 (stereo not drawn),x,-8,x,0,12,-1.3,x,0,0.2,2.8
CCCc1nnc(NC(=O)Cn2c(=O)oc3ccccc32)s1,-17,-2,-4,x,x,x,-4,-1,-0.1,-2.7
CN(C)NC1CCS(=O)(=O)C1 (stereo not drawn),0,0,u,22,16,-0.8,x,-12,0.2,-3.9
COc1ccc(C[C@H]2CN3C(=NC[C@@H]3Cc3ccc(O)cc3)N2CCNC(=O)c2ccc(C)c(Br)c2)cc1,28,47*,-14,-48,-77,-23,x,26,0.2,5.3
CCCCCCCCc1c(O)nc(-n2[nH]c(C)c(CCO)c2=O)[nH]c1=O,-3,-12,-5,-6,-5,3.0,-1,0,0.4,1.3
O=C(Nc1ccc2oc(-c3ccccc3)nc2c1)C1CCCO1 (stereo not drawn),9,-2,7,-13,-7,-4.0,18,8,-8.5,-2.4
Cc1ccc(C)c(NC(=O)C2=CCN(S(=O)(=O)c3ccc(F)cc3)CC2)c1,-2,14,-2,10,10,0.8,-67,-4,0.3,-2.0
CCOc1ccc(CCNC(=O)COC(=O)COc2ccc(C(=O)CC)cc2)cc1OCC,-9,-6,-1,4,15,0.8,-8,-3,0.0,0.0
CCN(Cc1ccccc1)C(=O)CSc1nc(C)cc(C)c1C#N,18,-23,-3,-45,-61,-9.2,-33,3,-0.5,-4.3
CCn1c(Cc2cccs2)nnc1SCC(=O)c1ccc(C)cc1,33,0,-2,x,x,x,18,41,-0.2,-0.3
CCOC(=O)N1CCN(C(=O)COc2ccc(Cl)cc2C)CC1,-4,-4,4,x,x,x,-3,5,-0.1,-3.6
C=CCn1c(SCC)nc2sc3c(c2c1=O)CCc1ccccc1-3,33,3,2,x,x,x,-17,-7,0.9,1.8
CC(C)CC(C(=O)NC(C)(C)C)N(Cc1cccs1)C(=O)c1snc(C(N)=O)c1N (stereo not drawn),10,-3,1,x,x,x,-6,1,0.2,3.8
Cc1cc(NC(=O)c2c(-c3c(F)cccc3Cl)noc2C)no1,9,0,1,-3,4,1.6,-6,-2,1.2,4.4
O=C(Nc1ccccn1)c1csc2c1CCCC2,-10,-18,-1,-17,-9,-1.7,2,1,-3.6,-5.6

# Complete entries, quoted from the list. Order of values: T cruzi inh | Beta2AR agonist | Calb FLC | rRNA inh HTS | rRNA inh HTS OD600 | rRNA inh HTS RFP | ALR inh | Beta apoptosis | A1 inh | LANA-H2B inh
# Cc1ccc(-n2cc(C(=O)O)c(=O)cc2C)c(C)c1 in the list: -1 | -2 | -5 | 6 | -4 | -2.1 | -5 | -5 | 1.1 | 0.5
# CCn1c(Cc2cccs2)nnc1SCC(=O)c1ccc(C)cc1 in the list: 33 | 0 | -2 | x | x | x | 18 | 41 | -0.2 | -0.3
# COc1ccccc1CNC(=S)NCc1ccc(F)cc1 in the list: -11 | -12 | -13 | 5 | -6 | -1.7 | -1 | -1 | 0.4 | 3.5

# Quoted at random: 5 compounds from above, in no set order.
SMILES,T cruzi inh,Beta2AR agonist,Calb FLC,rRNA inh HTS,rRNA inh HTS OD600,rRNA inh HTS RFP,ALR inh,Beta apoptosis,A1 inh,LANA-H2B inh
CN(C)NC1CCS(=O)(=O)C1 (stereo not drawn),0,0,u,22,16,-0.8,x,-12,0.2,-3.9
CCOC(=O)N1CCN(C(=O)COc2ccc(Cl)cc2C)CC1,-4,-4,4,x,x,x,-3,5,-0.1,-3.6
CCN(Cc1ccccc1)C(=O)CSc1nc(C)cc(C)c1C#N,18,-23,-3,-45,-61,-9.2,-33,3,-0.5,-4.3
CCCc1nnc(NC(=O)Cn2c(=O)oc3ccccc32)s1,-17,-2,-4,x,x,x,-4,-1,-0.1,-2.7
O=C(Nc1ccccn1)c1csc2c1CCCC2,-10,-18,-1,-17,-9,-1.7,2,1,-3.6,-5.6

# Further entries:
SMILES,T cruzi inh,Beta2AR agonist,Calb FLC,rRNA inh HTS,rRNA inh HTS OD600,rRNA inh HTS RFP,ALR inh,Beta apoptosis,A1 inh,LANA-H2B inh
COc1ccc(O)c(/C=N/NC(=O)c2c(C)nnn2-c2nonc2N)c1,-1,4,63*,2,5,-1.6,32,31,0.5,-1.5
CC(NC(=O)/C(=C/c1cccc([N+](=O)[O-])c1)NC(=O)c1ccco1)C(=O)O (stereo not drawn),-4,-4,-7,x,x,x,2,7,0.1,0.0
CCCn1c(N)c(N(CCOC)C(=O)c2ccc(F)cc2F)c(=O)[nH]c1=O,2,0,-6,-1,12,-1.6,0,-1,-1.1,-2.9
COc1cc(C(=O)OCC(=O)N2CCCCC2C)ccc1OCc1c(C)noc1C (stereo not drawn),4,5,14,-3,-8,-1.6,-6,-1,1.1,-4.1
Cc1ccc(NC(=O)c2ccc(S(=O)(=O)N3CCCCCC3)cc2)nc1,21,1,4,-3,-11,-2.4,1,4,0.2,-0.4
COc1cc(C2CC(=O)Oc3c2c(=O)n(C)c2ccccc32)cc(OC)c1OC (stereo not drawn),-24,9,-9,10,14,3.5,5,2,-0.4,-8.7
O=C(CC(C(=O)N1CCc2ccccc21)n1ccnc1)N1CCc2ccccc2C1 (stereo not drawn),72*,-6,-8,x,x,x,7,-1,0.5,5.3
CC(=O)c1ccc(S(=O)(=O)N2CCC(c3nnc(SCCN4CCCC4)n3C)CC2)cc1,0,3,-3,3,4,-3.5,x,-3,0.4,7.7
O=C(Nc1cccc(C(F)(F)F)c1)Nc1ccon1,7,-21,68,-4,-13,12,-2,-1,1.1,3.3
O=C(NCCCC1CCCC1)C1CCC(=O)N(Cc2ccccc2F)C1 (stereo not drawn),3,-13,-8,-11,-31,-3.4,-7,6,0.9,2.8
CN(C)/C=N/c1nc(-c2ccc3c(c2)OCO3)cs1,-10,-9,19,2,-2,-1.8,98*,1,-6.0,-2.5
Cc1ccc(C2=NN(CC(=O)NCCN(CC(C)C)CC(C)C)C(=O)CC2)cc1,0,7,1,2,13,0.4,-2,-2,0.8,15*
O=C(NCc1ccccn1)c1ccc(OC2CCN(Cc3ccc(CO)o3)CC2)cc1,-9,-4,1,4,8,-1.1,-5,-1,-0.4,7.4
CC(=O)c1c(C)[nH]c(C(=O)NCCN2CCC(C)CC2)c1C,-15,-2,0,x,x,x,4,x,0.4,-10.0
NS(=O)(=O)c1cc(C(=O)OCC(=O)c2ccc3c(c2)OCCO3)ccc1Cl,-5,3,-8,x,x,x,x,-4,-0.6,4.9
Cc1ccc(S(=O)(=O)N(C)C)cc1NC(=O)COC(=O)C1CCCC1,-5,-3,-7,6,12,-0.4,x,-4,-0.6,x
CCc1ccc(OCc2ccc(C(=O)NCc3ccccn3)o2)cc1,-3,-3,-6,x,x,x,63,-6,-0.2,3.7
CCN(CC)S(=O)(=O)c1ccc(OC)c(NC(=O)OCc2ccccc2)c1,7,2,7,-7,-5,-1.5,x,0,0.7,-11
O=C(N/C(=C/c1ccc(Br)cc1)c1nc2ccccc2[nH]1)c1ccco1,13,-4,4,x,x,x,-9,10,0.3,-4.2
CCCCCCn1c(N2CCCC2)nc2c1c(=O)[nH]c(=O)n2C,-8,-8,-6,4,7,-7.5,30,-4,2.3,8.0
Nc1nc(-c2cccc(NS(=O)(=O)c3ccccc3)c2)cs1,-3,9,7,x,x,x,u,-1,-0.1,-1.3
CCc1nnc(NCC(=O)N2CCc3ccccc32)s1,-6,6,4,x,x,x,-6,6,0.6,-6.5
CC1CCCCC1NC(=O)Cn1ncc2ccccc21 (stereo not drawn),-12,10,1,-4,-9,-0.1,97*,x,0.5,1.9
Cc1ccccc1S(=O)(=O)N(CC(O)CN1CCCCC1)c1ccccc1 (stereo not drawn),-7,-2,-18,2,8,-0.8,-7,0,u,-3.4
O=C(Nc1cc(C(F)(F)F)ccc1Cl)C(Sc1n[nH]c(=O)[nH]c1=O)c1ccccc1 (stereo not drawn),-3,1,0,-25,-3,17,0,-8,-1.3,0.0
COc1ccccc1C(=O)Nc1ccccc1N1CCN(C(=O)c2ccc(Cl)cc2)CC1,49,9,8,-15,-10,1.9,2,11,0.3,-8.2
COc1ccccc1NC(=S)NCCc1ccc(S(N)(=O)=O)cc1,x,-2,-14,6,3,-3.3,-6,-1,-0.9,4.8
Cc1ccnc2nc(C(=O)Nc3nc4ccccc4s3)nn12,-5,-24,3,11,1,-1.6,3,2,-2.8,1.2
